AID923 – qHTS Assay for Allosteric/Competitive Inhibitors of Caspase-1: Spectroscopic Profiling in AFC Spectral Region; 1.1% of 75,000 active; Potency, µM (titrated, usually from 57.5 µM), without a hit: top-dose fluorescence increase, hits mostly activators; compound fluorescence, AFC spectral region (405/520 nm); almost no hit is shown here; AID 923, 2007; active means well fitted activation curve with a large enough effect; inconclusive means small, poorly fitted or top-dose-only effect;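 further: potency means the concentration at half of the fitted maximal effect; 0% is about no effect; scaled to a free AFC standard on each plate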
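Titrations up to 57 uM read every 20 sec for 3 min (405/520 nm) with 50 nM caspase 1 and 5 uM Ac-WEHD-AFC, pH 7.5 HEPES buffer. Fluorescence-vs-time intercept gave baseline, scaled against on-plate AFC standard.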
A488 fluor – compound autofluorescence in A488 spectral region; compound autofluorescence, A488 spectral region, dye equivalency; hits give high values; max dye equivalency, M; 0.1% of 59,000 active; active = above 10 nM dye equivalent; inconclusive = 1 to 10 nM; inactive = 1 nM or less; about half of its hits are not listed in these tables;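 further: highest value over a series up to 38 µM; compound alone in buffer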
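Readout is A488 dye-equivalent concentration, calibrated by a per-plate six-point Alexa 488 series. Compounds in 100 mM Tris buffer pH 8.0 were incubated 15 min at room temperature. Plates were imaged using 480 nm excitation/540 nm emission filters.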
A647 fluor – A647 region autofluorescence | 59,000 tested, under 10 active | max dye-equivalent concentration, M | Compound fluorescence, A647 channel (570/671 nm), Tris buffer; active means above 1 µM dye equivalent; inconclusive means 0.1 to 1 µM; inactive means 0.1 µM or less;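 further: values scaled relative to a standard on each plate; highest value over a series up to 38 µM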
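Compound fluorescence was measured in 100 mM Tris buffer, pH 8.0, after 15 min at room temperature, using 570 nm excitation and 671 nm emission filters. Signal was normalized to a per-plate Alexa 647 standard curve and expressed as dye-equivalent concentration at each compound concentration.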
TSHR ag – activates the human thyroid stimulating hormone receptor. P16473. HEK293-CNG-TSHR cells (CNG channel as cAMP sensor), membrane potential dye, cAMP. Potency, µM (doses to about 57.1 µM), for the others: at the highest dose activation, actives largely listed as activators. 0.48% of 73,000 active. AID 926; active = well fitted activation curve of enough size with the parental cells flat; inconclusive = any curve in the parental cells; inactive = parental cells flat and receptor cells flat or falling; further: potency means the concentration at half of the fitted maximal effect; % of control where 0% means no effect; weak receptor curves with flat parental cells got no call and are not listed
Target sequence (P16473 whole entry, looked up): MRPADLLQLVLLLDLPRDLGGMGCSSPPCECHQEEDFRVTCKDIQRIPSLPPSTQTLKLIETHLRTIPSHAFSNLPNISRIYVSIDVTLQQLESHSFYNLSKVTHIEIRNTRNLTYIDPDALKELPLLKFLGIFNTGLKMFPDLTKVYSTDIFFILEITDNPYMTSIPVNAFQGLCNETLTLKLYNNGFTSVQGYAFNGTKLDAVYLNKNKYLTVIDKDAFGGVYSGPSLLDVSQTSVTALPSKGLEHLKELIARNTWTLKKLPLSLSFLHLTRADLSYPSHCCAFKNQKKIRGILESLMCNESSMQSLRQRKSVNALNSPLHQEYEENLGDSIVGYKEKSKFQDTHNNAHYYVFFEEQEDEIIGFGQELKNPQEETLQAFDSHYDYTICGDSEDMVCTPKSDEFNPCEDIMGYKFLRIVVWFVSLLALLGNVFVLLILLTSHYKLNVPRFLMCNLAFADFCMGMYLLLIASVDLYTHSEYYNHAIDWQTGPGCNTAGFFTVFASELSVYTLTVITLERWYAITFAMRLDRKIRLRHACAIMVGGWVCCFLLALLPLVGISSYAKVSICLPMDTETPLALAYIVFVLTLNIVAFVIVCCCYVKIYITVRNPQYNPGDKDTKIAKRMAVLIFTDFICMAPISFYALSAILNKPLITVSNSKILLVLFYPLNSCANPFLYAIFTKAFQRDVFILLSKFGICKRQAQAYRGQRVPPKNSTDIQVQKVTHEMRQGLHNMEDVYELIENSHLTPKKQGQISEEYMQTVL
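HEK 293 cells stably expressing TSHR and a cAMP-gated CNG channel; parental CNG-only cells as counterscreen. Cells preloaded 60 min with membrane potential dye plus 100 uM RO 20-1724, then compound 30 min; fluorescence read at 590 nm.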
Resorufin fluor – compound fluoresces in the resorufin spectral region; max dye-equivalent concentration, M; Compound fluorescence, resorufin region 547/598 nm, buffer; hits give high values; 0.04% of 59,000 active; active = above 10 nM dye equivalent; inconclusive = 1 to 10 nM; inactive = 1 nM or less; a few of its hits are not listed in these tables; further: highest value over a series up to 38 µM
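Intrinsic fluorescence profiled in the resorufin window (ex 547 nm, em 598 nm) after 15 min at room temperature in pH 8.0 Tris buffer (100 mM); responses normalized against a six-point resorufin standard series as dye-equivalent concentration.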
Active calls of the source: *; i = inactive; u = inconclusive; x = not tested or not shown; [ ] = dose if it differs, or a comment.

SMILES	AID923	A488 fluor	A647 fluor	TSHR ag	Resorufin fluor
Cc1ccc(Nc2cccccc2=O)cc1	-2.2%	i	2.7e-09	4.6%	i
CCOC(=O)c1cccc(NC(=O)CSc2nc3cccnc3n2C)c1	1.2%	i	2.07e-08	u	i
COc1ccc(CNC(=O)C2CC(c3cccc(OC)c3)=NO2)cc1 (stereo not given)	-1.0%	i	1e-09	21.7%	i
O=C(Nc1ccccc1-c1nnn(CC(=O)N2CCN(c3ccccc3)CC2)n1)c1cccs1	0.9%	i	3.9e-09	-2.3%	i
O=C(O)CN1C(=O)C2C3C=CC(C3)C2C1=O (stereo not given)	-0.3%	x	x	0.1%	x
O=C(CNCC1CCCO1)N1CCCc2ccccc21 (stereo not given)	-0.4%	i	1e-09	u	i
CCCN1C(=O)C(O)(C2CC(=O)CC(C)(C)O2)c2ccccc21 (stereo not given)	1.0%	i	1.46e-08	-6.2%	i
CC(C)Cc1nc(N2CCOCC2)c(C#N)c2c1COC(C)(C)C2	x	i	1.7e-08	x	i
Oc1ccccc1C(=S)N1CCCCCC1	-1.3%	i	4.56e-08	-4.2%	i
CCOC(=O)CC1=Nc2ccccc2NC(=O)C1	-0.7%	i	3.58e-08	-0.3%	i
[N-]=[N+]=CC(=O)CCCN1C(=O)c2ccccc2C1=O	-1.3%	i	1e-09	-11.2%	i
O=C(c1ccccc1)c1nc[nH]c1C(=O)Nc1ccccn1	-1.7%	i	3.4e-09	0.0%	i
CCCCN(C)CCC(=O)Nc1ccc(OC)cc1OC	0.0%	x	x	2.6%	x
O=C(CN1CCN(c2ccccc2F)CC1)Nc1ccccc1F	-0.4%	i	4.18e-08	u	i
CC(=O)Oc1ccc2oc(C)c(C(=O)N3CCOCC3)c2c1	0.6%	x	x	8.6%	x
Nc1nonc1-c1noc(-c2ccccc2Br)n1	-1.8%	i	4.3e-09	14.9%[11.4 µM]	i
CCCN(Cc1cc2ccc(C)cc2[nH]c1=O)C(=O)c1ccccn1	-1.5%	i	2.9e-09	2.9%	i
COc1ccc2nc(NC3=NCCC3)sc2c1	0.3%	i	2.55e-08	1.4%	i
Cc1ccc(NC(=O)CSc2nc3c(c(=O)[nH]2)CCC3)cc1C	1.6%	i	1e-09	19.8%	i
CCCn1c(SCC(=O)Nc2cccc(C)n2)nnc1-c1ccco1	1.7%	i	6.73e-08	2.8%	i
CNc1ccnc(-c2cccc(NS(C)(=O)=O)c2)n1	0.8%	i	1e-09	2.3%	i
COc1ncc2nc(-c3cccc(C#N)c3)c(=O)n(CCC#N)c2n1	9.1%	i	2.1e-09	-7.4%	i
COc1ccc(C(c2nnnn2C2CCCC2)N2CCN(C3CCCC3)CC2)cc1OC (stereo not given)	-0.9%	i	1.7e-09	2.3%	i
COc1nc(NCCN2CCOCC2)nc(Nc2ccccc2)n1	-2.5%	i	1e-09	-2.3%	i
Cc1nc(C)c(C(=O)C2=C(O)C(=O)N(CCCn3ccnc3)C2c2ccccc2)s1 (stereo not given)	0.7%	i	1.63e-08	11.6%	i
CC1(C)O[C@H]2[C@@H](O1)[C@@H](On1nnc3ccc(Cl)cc31)O[C@@H]2[C@@H]1COC(C)(C)O1	0.3%[11.5 µM]	i	1.72e-08	0.8%[11.4 µM]	i
CCCCNc1ncnc2c1cnn2-c1ccc(Cl)cc1	0.1%	x	x	11.4%	x
COC(=O)C(C)Sc1nc2c(c(=O)n1-c1ccccc1)SCC2 (stereo not given)	0.9%	i	1e-09	-0.6%	i
CCC(=O)Nc1ccc(N2CCN(Cc3ccccc3)CC2)cc1	-0.7%	i	1e-09	-7.5%	i
NC1(C(=O)O)CCCCC1	-2.9%	i	1.06e-08	2.5%	i
COc1cc2nc(N3CCN(C(=O)OCc4ccccc4)[C@H](C(=O)NC(C)(C)C)C3)nc(N)c2cc1OC	-1.4%	i	2.34e-08	u	i
COc1ccc(-c2nn(-c3ccccc3)cc2C(=O)Nc2nc(CC(C)=O)ns2)cc1	0.6%	i	2.28e-08	-12.2%	i
COc1ccc(N(CC(=O)NCc2cccc(OC)c2)S(=O)(=O)c2c(C)noc2C)cc1	3.4%	i	2e-09	-2.1%	i
CCCCc1[nH]c(=O)c(C#N)c2c1CSC(C)(C)C2	x	i	4.14e-08	x	i
Cc1oc(-c2ccccc2)cc1C(N)=O	1.8%	i	5.4e-09	-5.8%	i
Cc1n[nH]c(C)c1S(=O)(=O)NCCc1ccc(Cl)cc1	1.9%	i	5.9e-09	2.2%	i
CCOC(=O)CSc1nc(N)c(C(=O)Nc2ccc(N(C)C)cc2)s1	x	i	3.04e-08	x	i
N#CCc1nc2n(n1)Cc1ccccc1-2	-0.6%	i	1e-09	2.9%	i
O=C(Nc1nccs1)c1ccc(COc2ccc(F)cc2)o1	1.0%	i	6.9e-09	17.2%	i
O=C(COc1nsnc1N1CCOCC1)N1CCOCC1	1.1%	i	3.48e-08	0.7%[11.4 µM]	i

A different layout for some results above.
smiles,AID923,A488 fluor,A647 fluor,TSHR ag,Resorufin fluor
COc1ccc(-c2nn(-c3ccccc3)cc2C(=O)Nc2nc(CC(C)=O)ns2)cc1,0.6%,i,2.28e-08,-12.2%,i
COc1ccc(N(CC(=O)NCc2cccc(OC)c2)S(=O)(=O)c2c(C)noc2C)cc1,3.4%,i,2e-09,-2.1%,i
CCCCc1[nH]c(=O)c(C#N)c2c1CSC(C)(C)C2,x,i,4.14e-08,x,i
Cc1oc(-c2ccccc2)cc1C(N)=O,1.8%,i,5.4e-09,-5.8%,i
Cc1n[nH]c(C)c1S(=O)(=O)NCCc1ccc(Cl)cc1,1.9%,i,5.9e-09,2.2%,i
CCOC(=O)CSc1nc(N)c(C(=O)Nc2ccc(N(C)C)cc2)s1,x,i,3.04e-08,x,i
N#CCc1nc2n(n1)Cc1ccccc1-2,-0.6%,i,1e-09,2.9%,i

(continued)
SMILES	AID923	A488 fluor	A647 fluor	TSHR ag	Resorufin fluor
CCC(=O)Nc1nnc(SCC(=O)Nc2ccc(F)cc2)s1	2.0%	i	5.5e-09	1.0%	i
O=C(COC(=O)c1cc(S(=O)(=O)N2CCOCC2)ccc1Cl)Nc1ccc2c(c1)OCO2	1.7%	i	2e-09	4.2%	i
CCn1cc(C2=NOC(C(=O)Nc3ccccc3C(=O)OC)C2)c(C)n1 (stereo not given)	5.6%	x	x	-1.6%	x
COc1ccc(OC)c2c1CC(C)(C)NC2=O	-0.1%	x	x	-2.6%	x
O=c1cc(-c2ccccc2)[nH]c2[nH]n(-c3ccccc3)c(=O)c12	-2.0%	i	3.9e-09	-2.6%	i
CC(=O)NC(CCS(C)(=O)=O)C(=O)Nc1cc(Cl)ccc1Cl (stereo not given)	2.0%	x	x	0.5%	x
O=C(c1cnccn1)N1CCC[C@@]2(CCN(c3ncccn3)C2)C1	5.7%	i	1.18e-08	-1.5%	i
CN(C)c1nc2c(c(=O)n(C)c(=O)n2C)n1Cc1ccccc1	0.6%	i	1.53e-08	3.4%	i
CCOc1ccc(C2C(C#N)=C(N)Oc3cc(C)n(CCN4CCOCC4)c(=O)c32)cc1OCC (stereo not given)	x	i	1.66e-08	x	i
Cc1cc(=O)n2nc(N3CCCC(C(=O)N4CCN(c5ccccc5)CC4)C3)sc2n1 (stereo not given)	2.4%	i	2.69e-08	1.6%	i
CCc1nc(SCC(=O)Nc2cc(C)on2)n[nH]1	0.0%	i	1e-09	-1.0%	i
COCCCNc1nc2ccccc2nc1NS(=O)(=O)c1cccs1	7.7%	i	2.72e-08	-21.2%	i
Cn1c(=O)cc(SCC(=O)NCCCN2CCN(c3ccc(F)cc3)CC2)c2ccccc21	1.1%	i	1.45e-08	6.1%[11.4 µM]	i
COC(=O)N1CCC2(CC1)CN(c1ccc(-c3ccccc3)cc1)C2	1.6%	i	6.8e-09	7.8%	i
CCCCOC(=O)Nc1ccc(S(=O)(=O)Nc2cc(C)nc(C)n2)cc1	-0.5%	x	x	1.8%	x
O=C(CSc1nnc(-c2ccc(F)cc2)o1)c1ccc2c(c1)OCCO2	-1.8%	i	2.62e-08	2.0%	i
CCOC(=O)Nc1sc2c(c1C(=O)OCC)CCC2	1.6%	i	5.1e-09	13.3%	i
CCc1ccccc1NC(=O)CC(O)(C(=O)OC)C(F)(F)F (stereo not given)	-2.4%	i	2.3e-09	-2.9%	i
CCCc1c(OCCCOc2ccc(OCC(=O)O)cc2)ccc(CC=O)c1O	-3.8%	x	x	u	x
CCCN(CCC)CCNC(=O)C(NS(=O)(=O)c1ccc2c(c1)CCC(=O)N2)c1ccccc1 (stereo not given)	-0.6%	i	1e-09	-12.6%	i
N#Cc1nc(Cc2ccccc2)oc1NCCN1CCOCC1	1.9%	i	1.49e-08	6.9%	i
O=C(Nc1ccccc1)N1CCCC2(CCN(C(=O)c3cccc(F)c3)CC2)C1	-0.5%	i	2.86e-08	25.1µM*	i
CCOC(=O)c1ccc(NC(=O)CSc2nnc(Cn3c(=O)sc4ccccc43)n2C)cc1	-0.2%	x	x	-8.2%	x
COCCN1CN=C(Nc2nc(C)c3ccc(C)cc3n2)NC1	0.1%	i	2.4e-09	-5.9%	i
O=C(O)CCCC(=O)Nc1ccccc1Br	1.4%	x	x	-1.7%	x
CCOC(=O)Nc1cccc(Cl)c1C	-0.6%	i	3.86e-08	-2.5%[11.4 µM]	i
CCn1c(SCC(=O)Nc2cc(OC)ccc2OC)nnc1C1CCCCC1	-2.1%	i	1e-09	u	i
COCC(=O)N(C)C1(c2nnnn2CCOC(=O)Nc2ccc(Cl)cc2)CCCC1	-2.1%	i	1e-09	-4.6%	i
CCOc1cc(NC(=O)C2CCCO2)c(OCC)cc1NC(=O)C1CC1 (stereo not given)	0.1%	i	3.4e-09	1.7%	i
CC1(C)CC(=O)C(C=NCC2CCCO2)=C(O)C1 (stereo not given)	-0.2%	x	x	-5.8%[11.4 µM]	x
O=C(COc1ccccc1Br)c1ccc(O)cc1O	2.5%	i	2.67e-08	0.8%[11.4 µM]	i
CCCNc1ncccc1C(N)=O	0.7%	i	2.08e-08	-0.7%	i
O=C(O)c1ccccc1C(=O)NCc1ccc(F)cc1	-3.3%	i	1.74e-08	-2.7%	i
C=C1CC2C=C(NC(C)=O)CC(C1)C2 (stereo not given)	-0.1%	x	x	6.2%	x
COc1ccccc1C(=O)NC(C)C(c1cccs1)N1CCOCC1 (stereo not given)	0.0%	i	1.94e-08	15.0%	i
COCc1cc(C)nc(SCC(=O)NCc2ccco2)c1C#N	0.8%	i	1e-09	-6.0%[11.4 µM]	i
NC(=O)CC(NC(=O)OCc1ccccc1)C(=O)O (stereo not given)	0.4%	i	3.91e-08	23.8%	i
O=C(OCC#CCSc1nc2ccccc2o1)c1ccco1	1.5%	i	1.9e-09	u	i
Cc1cc(C)cc(-n2nnnc2SCC(=O)Nc2cccc(NC(=O)c3ccco3)c2)c1	0.3%	i	4.46e-08	0.8%	i
N#Cc1c(-c2cccs2)cc(-c2cccnc2)nc1N	12.9%	i	3e-09	2.4%	i
Cc1ccc(-n2ncc(C#N)c2/N=C/N2CCOCC2)cc1	1.2%	i	1e-09	x	i
CSC1=N/C(=C\C=C\c2cccs2)C(=O)S1	-1.1%	x	x	-9.8%	x
O=C(c1cnccn1)N1CCC[C@@]2(CCN(Cc3nccs3)C2)C1	0.1%	i	1.56e-08	-2.2%	i
O=C(O)CN1C(=O)Nc2ccc(Br)cc2C1c1ccccc1 (stereo not given)	0.0%	i	8.2e-09	20.7%	i
COc1ccc2[nH]cc(CCNc3ncnc4ccc(-c5ccccc5OC)cc34)c2c1	1.4%	i	2.32e-08	-3.2%	i

Compound activity from PubChem.

The list is partial; rates above refer to the full screens.
